GLA inh pH 4.5: alpha-galactosidase A (human) inhibition, pH 4.5. purified enzyme, 4-MU-alpha-Gal fluorescence, pH 4.5. activity change, negative = inhibition, % at 105 µM. 230,000 tested, under 10 active. AID 1467. P06280; inconclusive = small, poorly fitted or top-dose-only inhibition, or a rising curve; inactive = flat fitted curve, though single readings scatter; no compound was filed as active;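 also: 0% = full activity with enzyme and -100% = basal without enzyme; dose as in the result columns while the protocol names 77 µM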
miR-21 reporter: raises the signal of a miR-21 reporter; 340,000 tested, under 10 active; HeLa miR-21 FLuc reporter, luciferase, 48 h; AID 2288; Potency, µM (titrated, usually from 38.3 µM), inactives show top-dose reporter change, positive = more light; active = well fitted rising curve with a large enough effect; inconclusive = small, poorly fitted or top-dose-only effect; inactive = no such curve, though single readings can be large or run the other way;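 also: % of control where 0% means no effect; miR-21 action dims this reporter so a rising signal means less miR-21 action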
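Luminescence from a firefly luciferase reporter carrying a miR-21 binding site downstream, stably expressed under a CMV promoter in HeLa cells that make miR-21 endogenously, reports miRNA modulation after 48 h compound exposure up to approximately 40uM final.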
Rango complex inh: inhibitors of Rango-importin beta complex formation. Q14974. Rango CFP/YFP FRET sensor + importin beta, 45 min. actives 0.031% (n = 340,000). Potency, µM (top dose mostly 92.2 µM), without a hit: at the top dose inhibition of complex formation; active = rising FRET ratio curve, often small or poorly fitted; inconclusive = mostly compound fluorescence or quenching in the first reads; inactive = flat curves in all reads;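 also: potency is read from the fitted curve at half-maximal effect; 0% = DMSO wells and 100% = buffer wells lacking importin beta; nearly all actives have a fitted effect of over 15% in size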
Target sequence (Q14974 whole entry, looked up): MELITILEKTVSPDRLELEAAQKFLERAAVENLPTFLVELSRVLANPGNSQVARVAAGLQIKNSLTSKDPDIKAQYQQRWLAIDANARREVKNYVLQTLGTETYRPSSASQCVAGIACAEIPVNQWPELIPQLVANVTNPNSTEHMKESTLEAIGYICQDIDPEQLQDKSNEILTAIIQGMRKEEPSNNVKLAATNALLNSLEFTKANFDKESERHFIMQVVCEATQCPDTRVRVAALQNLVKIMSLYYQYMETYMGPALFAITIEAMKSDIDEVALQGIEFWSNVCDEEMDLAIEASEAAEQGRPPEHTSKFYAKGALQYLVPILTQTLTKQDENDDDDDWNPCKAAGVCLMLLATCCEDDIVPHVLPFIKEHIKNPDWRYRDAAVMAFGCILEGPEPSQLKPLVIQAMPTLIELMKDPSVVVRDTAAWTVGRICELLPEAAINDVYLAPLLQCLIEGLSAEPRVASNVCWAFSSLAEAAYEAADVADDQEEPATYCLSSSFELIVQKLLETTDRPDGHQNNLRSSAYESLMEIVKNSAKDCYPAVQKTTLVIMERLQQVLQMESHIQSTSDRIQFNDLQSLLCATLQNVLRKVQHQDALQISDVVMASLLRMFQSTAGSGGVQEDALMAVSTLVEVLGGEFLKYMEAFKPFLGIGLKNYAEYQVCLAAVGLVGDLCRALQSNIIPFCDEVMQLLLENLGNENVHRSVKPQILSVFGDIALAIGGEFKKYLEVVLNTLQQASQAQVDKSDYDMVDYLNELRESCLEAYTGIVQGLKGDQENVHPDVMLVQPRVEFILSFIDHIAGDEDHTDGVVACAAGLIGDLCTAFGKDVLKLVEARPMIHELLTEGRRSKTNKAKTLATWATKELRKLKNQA
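Inhibition scored from the CFP 486 nm/YFP 530 nm FRET ratio 45 min after adding 0.125 microM importin beta to 50 nM Rango biosensor preincubated 5 min with compound (room temperature, PBS with DTT, Tween-20, BSA). No-importin wells as positive control.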
Rango dissoc inh: prevents RanGTP from dissociating the Rango-importin beta complex. Potency, µM (titrated, usually from 46.1 µM), inactives show at the top dose activity change, negative = inhibition. Biochemical FRET Rango-importin beta, RanGTP-induced dissociation. actives 0.071% (n = 340,000); active means falling FRET ratio curve, often poorly fitted, with flat reads before Ran was added; inconclusive means other falling curves, or compound fluorescence or quenching; inactive means flat or rising ratio curve;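 also: potency is read from the fitted curve at half-maximal effect; % of control where 0% means no effect; nearly all actives have a fitted effect of over 45% in size; -100% = wells without RanGTP and RCC1; the record marks most hits as doubtful in a second field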
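Compounds sat 5 min at room temperature with 0.1 uM Rango biosensor plus 0.25 uM importin beta, then FRET pre-read. RanGTP-RCC1 (0.6 uM Ran, 2mM GTP, 0.2 uM RCC1) added for 45 min, and the CFP/YFP post-read measured blocked complex dissociation.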
Active calls of the source: *; ? = inconclusive; . = no result given. The list is partial (hit frequency here may not be typical).

SMILES	GLA inh pH 4.5	miR-21 reporter	Rango complex inh	Rango dissoc inh
COc1cc(NC(=O)c2nccn2C)cc(C(=O)Nc2cccc(C(F)(F)F)c2)c1	2.7	23.6%	-2.7%	6.8%
Cc1ccn(C(=O)c2cc3c(C)nn(-c4ccccc4)c3s2)n1	4.0	-0.1%	6.3%	-2.8%
Cc1ccc(OCC(=O)Nc2ccc(S(=O)(=O)N(C)C3CCN(C)CC3)cc2)c(C)c1	.	-11.5%	2.0%	1.4%
CCCn1c(SCC(=O)NCc2ccc3c(c2)OCO3)n[nH]c1=O	.	.	0.7%	17.4%
O=[N+]([O-])c1cc(Cl)cc(C2=NCCN2)c1	-6.6	10.1%	5.2%	?
O=C(N/N=C/C=C\c1ccccc1[N+](=O)[O-])c1cccs1	-2.9	-26.8%	6.0%	-4.8%
CCSC1=N/C(=C\c2cccnc2)C(=O)N1c1ccccc1	-14.5	-0.2%	-1.0%	-1.2%
O=C(CSc1nnc(-c2ccccc2F)n1C1CC1)NCc1ccco1	.	.	-1.7%	10.1%
CC(=O)N(Cc1c(C#N)c2ccccc2n1C)c1ccccc1	1.9	-9.6%	0.4%	-1.0%
O=C(CN(C(=O)CCC(=O)Nc1nccs1)c1cccc(F)c1)NCc1ccc2c(c1)OCO2	.	-3.6%	-0.5%	4.3%
CN(Cc1ccc(F)cc1)C(=O)c1cc(COc2ccc(F)cc2F)on1	-3.8	-1.2%	4.6%	0.0%
COc1cnn(-c2cc(Oc3ccc(C)cc3)ncn2)c(=O)c1Cl	10.8	-17.9%	4.9%	-5.1%
CC1(c2ccc(C#N)cc2)NC(=O)N(CC(=O)Nc2cc(S(=O)(=O)N3CCOCC3)ccc2Cl)C1=O (centres undefined)	-25.4	-0.6%	2.0%	-4.8%
CC1=CC(C)(C)N(C(=O)CSc2ncn[nH]2)c2ccccc21	-5.0	-4.6%	3.3%	-0.9%
COCCCN=C1NN=C(c2cc(C)n(Cc3ccco3)c2C)CS1	-9.2	0.8%	1.5%	9.2%
COc1ccc(Br)cc1CN(C)CC(=O)Nc1cccc(S(=O)(=O)N2CCCC2)c1	.	.	-0.2%	-12.1%
COC(=O)[C@@H](NC(=O)c1ccccc1)[C@@H](C)O	.	0.6%	0.7%	-9.4%
O=C(CSc1nccc(=O)[nH]1)NC1CCCc2ccccc21 (centres undefined)	-0.3	-10.6%	1.7%	-4.9%
CC(=O)c1ccc(NC(=O)CN2CCN(c3ccccc3)CC2)cc1	.	0.5%	-2.2%	?
CCSC1=NCCN1C(=O)c1ccc(S(=O)(=O)N(C)C)cc1	6.2	2.5%	?	9.5%
Cc1ccc(NC(=O)NNS(=O)(=O)c2ccc(Br)cc2)cc1	7.1	-0.5%	3.2%	9.8%
O=C(O)c1cccnc1SC1CC(=O)N(Cc2ccccc2)C1=O (centres undefined)	-6.5	-5.2%	6.0%	-9.1%
O=C1CC(c2ccccc2)c2cccc(F)c21 (centres undefined)	.	-2.1%	2.3%	-5.4%
CCc1nc(C)cn1S(=O)(=O)c1ccc2c(c1)OCCO2	.	.	0.9%	1.1%
Cn1c(=O)n(C)c2cc(NS(=O)(=O)c3ccccc3[N+](=O)[O-])ccc21	.	-3.0%	1.1%	-4.0%
COc1ccc(-c2nc(CS(=O)(=O)CC(=O)NCCCc3ccccc3)c(C)o2)cc1	.	-4.1%	0.2%	11.3%
OCCC1CN(Cc2cccn2-c2nccs2)CCN1CCc1ccccc1 (centres undefined)	4.2	-3.3%	3.9%	-9.6%
COc1ccc(CNC(=O)c2cc(C)nc3ccccc23)cc1OC	-1.4	2.1%	-3.2%	2.9%
COC(=O)C1=C(C)N(c2ccc(OC)cc2)C(C)=C(C(=O)OC)C1c1ccccc1	0.8	0.7%	-0.3%	-14.4%
COc1ccc(/C=N/N=C2\CC3CCC2(C)C3(C)C)cc1O (centres undefined)	1.3	-1.6%	-0.3%	1.9%
Cc1ccc(C(=O)CSc2nnc(-c3ccccc3N)n2C)cc1	-4.4	-16.1%	2.1%	5.9%
Oc1c(Br)cc(Br)cc1CNc1ccccn1	-5.4	-8.6%	-0.3%	10.1%
N/C(=N\OC(=O)c1cccs1)C1(c2ccc(Cl)cc2Cl)CC1	-11.5	-2.6%	0.5%	0.8%
Cc1cccc(-c2nnc(SCC(=O)Nc3nc4c(s3)CCCC4)n2C)c1	-1.8	-15.1%	-0.7%	4.8%
Cc1ccc(-n2c(C)cc(C)c(C#N)c2=O)cc1	5.7	0.6%	1.8%	-5.9%
COc1ccc2oc(C(=O)NCCc3ccccc3)c(C)c2c1	.	.	?	-11.1%
CCC(C(=O)OCC(=O)NC(=O)NC(C)(C)C)c1ccccc1 (centres undefined)	-11.6	-1.9%	0.0%	-3.3%
O=C(CS(=O)(=O)c1c[nH]c2ccccc12)N1CCCCC1	4.8	-4.5%	-0.5%	-5.1%
CC(C)CCNC(=O)C(c1ccncc1)N(C(=O)Cn1nnc(-c2ccc(F)cc2)n1)c1ccccc1F (centres undefined)	2.4	-1.4%	3.2%	2.4%
COc1ccc(C2CC(=O)CC(=O)C2n2cncn2)cc1 (centres undefined)	7.7	-1.4%	-3.3%	-0.2%
Cc1ccc(Sc2ncccc2C(=O)NC2CCCCCC2)cc1C	4.1	-10.5%	-4.7%	8.0%
O=C(Nc1ccc2[nH]c(=O)[nH]c2c1)c1cccc([N+](=O)[O-])c1	.	0.1%	1.2%	?
CC(C)OC(=O)NS(=O)(=O)c1cccc([N+](=O)[O-])c1	-23.5	0.6%	0.0%	0.5%
Cc1ccc2nsnc2c1S(=O)(=O)N1CCOCC1	1.2	-6.8%	1.9%	0.3%
COc1ccc(OC)c(S(=O)(=O)N2c3ccccc3CC2C)c1 (centres undefined)	-0.8	2.6%	-2.6%	-20.0%
CCCOc1ccc(/C(O)=C2/C(=O)C(=O)N(CCN(C)C)C2c2ccco2)cc1 (centres undefined)	-8.1	-12.2%	-1.3%	-6.4%
O=S(=O)(c1ccc(Br)cc1)c1nc(-c2ccco2)oc1NCC1CCCO1 (centres undefined)	-2.1	-3.8%	1.3%	0.6%
O=C1C2C3C=CC(C4CC34)C2C(=O)N1/N=C/c1c[nH]c2ccccc12 (centres undefined)	9.0	-43.0%	-0.1%	-11.6%
COc1ccc(-c2ccc(Nc3ccc(C(=O)N4CCOCC4)cc3)nn2)cc1OC	-0.9	0.1%	0.6%	-4.1%
CCn1cc(C(=O)NCCc2ccc(Cl)cc2)c(=O)c2cc(S(=O)(=O)N(C)C)ccc21	.	1.0%	-3.9%	5.2%

An excerpt from above in order of their number in Rango complex inh, descending:
molecule | GLA inh pH 4.5 | miR-21 reporter | Rango complex inh | Rango dissoc inh
O=C(O)c1cccnc1SC1CC(=O)N(Cc2ccccc2)C1=O (centres undefined) | -6.5 | -5.2% | 6.0% | -9.1%
O=C(CN(C(=O)CCC(=O)Nc1nccs1)c1cccc(F)c1)NCc1ccc2c(c1)OCO2 | . | -3.6% | -0.5% | 4.3%
Cc1ccc(Sc2ncccc2C(=O)NC2CCCCCC2)cc1C | 4.1 | -10.5% | -4.7% | 8.0%

(continued)
SMILES	GLA inh pH 4.5	miR-21 reporter	Rango complex inh	Rango dissoc inh
COc1ccc(/C=C/C(=O)NCCN=C2NS(=O)(=O)c3ccccc32)cc1	0.4	2.5%	-0.3%	0.1%
O=C(C1=C[C@@H](C2CCCCC2)C[C@@H](OCCCCO)O1)N1CCN(Cc2ccc3c(c2)OCO3)CC1	2.9	0.4%	1.8%	-4.2%
CCn1c(C(=O)N2CCC(C(=O)NCc3cccs3)CC2)cc2sccc21	-0.3	0.6%	4.3%	0.1%
CC1CCN(C(=O)CN(Cc2ccc(Cl)cc2)S(C)(=O)=O)CC1	.	0.3%	1.1%	0.3%
Cc1cc(C)c(S(=O)(=O)c2ccccc2)c(N2CCOCC2)n1	-15.5	-2.8%	0.6%	7.4%
COc1cccc(-c2cc(C(F)(F)F)n3ncc(C(=O)N4CCc5ccccc5C4)c3n2)c1	4.2	-8.0%	-1.3%	-5.7%
CCOC(=O)c1c(-c2ccc(Cl)cc2)c(C#N)c(=O)n(N)c1N	4.2	0.5%	-4.1%	-2.7%
O=C(CSc1nccc(=O)[nH]1)NN(c1ccccc1)c1ccccc1	0.3	-4.8%	-1.9%	19.5%
CCS(=O)(=O)c1nc(S(=O)(=O)c2ccc(C)cc2)c(N2CCC(O)CC2)s1	.	3.3%	-4.3%	19.6%
CSc1cccc(CNC(=O)C2CCC(=O)N(CCc3ccccn3)C2)c1 (centres undefined)	.	-0.4%	-0.5%	3.7%

7 structures already listed, sorted by SMILES length, lowest first.
SMILES	GLA inh pH 4.5	miR-21 reporter	Rango complex inh	Rango dissoc inh
COc1ccc2oc(C(=O)NCCc3ccccc3)c(C)c2c1	.	.	?	-11.1%
COCCCN=C1NN=C(c2cc(C)n(Cc3ccco3)c2C)CS1	-9.2	0.8%	1.5%	9.2%
Cc1cc(C)c(S(=O)(=O)c2ccccc2)c(N2CCOCC2)n1	-15.5	-2.8%	0.6%	7.4%
CC1CCN(C(=O)CN(Cc2ccc(Cl)cc2)S(C)(=O)=O)CC1	.	0.3%	1.1%	0.3%
Cc1cccc(-c2nnc(SCC(=O)Nc3nc4c(s3)CCCC4)n2C)c1	-1.8	-15.1%	-0.7%	4.8%
O=C1C2C3C=CC(C4CC34)C2C(=O)N1/N=C/c1c[nH]c2ccccc12 (centres undefined)	9.0	-43.0%	-0.1%	-11.6%
COc1cc(NC(=O)c2nccn2C)cc(C(=O)Nc2cccc(C(F)(F)F)c2)c1	2.7	23.6%	-2.7%	6.8%

Additional results.
SMILES	GLA inh pH 4.5	miR-21 reporter	Rango complex inh	Rango dissoc inh
COc1ccccc1CNC(=O)C1CSC2(C)CCC(=O)N12 (centres undefined)	.	.	?	1.2%
CCC(=O)NC(=S)Nc1ccccc1C(F)(F)F	.	.	-4.2%	-3.4%
CC1CN(S(=O)(=O)c2ccc(C(=O)Nc3nccs3)cc2)CC(C)O1 (centres undefined)	0.4	12.3%	5.0%	5.6%
Cc1ccsc1C(=O)OCC(=O)Nc1cccc(S(=O)(=O)N2CCOCC2)c1	0.1	1.9%	2.8%	-5.8%
CCCC1=C([O-])C2N=CC=CC2=[N+](c2ccccn2)C1=O (centres undefined)	-16.4	-4.1%	-2.7%	-7.2%
CCOC(=O)c1c(C)nc(C)c(C(=O)OCC)c1-c1ccc(O)c(OC)c1	-2.6	4.5%	7.5%	-19.2%
CC(NC(=O)C1CC1)C(c1cccs1)N1CCOCC1 (centres undefined)	2.6	8.2%	0.8%	-4.8%
CC(C)N(C(=O)CN1C(=O)NC(c2ccccc2)(c2ccccc2)C1=O)C(C)C	.	-7.2%	4.3%	10.1%
CN(Cc1cccnc1)C(=O)CNC(=O)COc1ccccc1	.	1.3%	-6.6%	-9.8%
Nc1nnc(-c2cccc(F)c2)s1	-1.1	-12.3%	3.1%	7.2%
CCOC(=O)c1ccccc1NC(=S)N1CCC(C)CC1	4.3	-13.5%	-1.6%	3.4%
CN(C)CCOC(=O)CCc1ccccc1	-5.3	-3.0%	-1.1%	-23.4%
CCOC(=O)C1(CCOc2ccccc2)CCN(Cc2ccc(C(=O)OC)cc2)CC1	.	12.2%	-0.1%	1.5%
Cc1cccc(Nc2c([N+](=O)[O-])ccc3nonc23)c1C	.	-0.1%	2.5%	15.0%
N/C(=N\S(=O)(=O)c1cc(C(F)(F)F)cc(C(F)(F)F)c1)c1ccncc1	.	-3.3%	0.0%	-5.6%
Cc1c(NC(=S)NC(=O)CSc2ccc(Cl)cc2)cccc1C(=O)O	.	-13.0%	3.6%	-14.1%
COc1ccc2c(c1)cc(C)c1nnc(SCC(=O)N(C)c3nc(-c4ccccc4)cs3)n12	5.6	-1.0%	3.0%	-7.5%
O=C(NCc1cccnc1)[C@@H]1CC=C[C@@H]2CCN(Cc3ccccc3)C(=O)[C@@H]21	.	.	-0.5%	-8.0%
CCC(C)N(C(=O)CSc1nc(-c2cccs2)nc2ccccc12)C1CCS(=O)(=O)C1 (centres undefined)	.	.	?	?
c1ccc(C2CC(c3ccccc3)n3ncnc3N2)cc1 (centres undefined)	9.9	-15.2%	0.1%	-9.9%
CC(C)n1c(SCC(=O)Nc2nncs2)nnc1C1CC1	.	-4.9%	4.5%	12.4%
CCCCNC(=O)CN1C(=O)c2cccc(N)c2C1=O	2.7	-5.2%	?	?
O=C(O)CCn1cc(/C=C2\NC(=S)N(c3ccccc3)C2=O)c(-c2ccc(Br)cc2)n1	-4.7	-1.5%	?	?

Source: PubChem BioAssay
